Source: PubChem BioAssay (National Center for Advancing Translational Sciences (NCATS))
Vaccinia Venus: vaccinia inhibition (Venus reporter); Vaccinia virus Venus reporter expression, fluorescence; Potency, µM (highest dose often 36.5 µM), for inactives: at the highest dose activity change, negative = inhibition, usual class: inhibitors; hit rate 0.46% among 330,000; AID 720580; active means well fitted inhibition curve with a large enough effect; inconclusive means small, poorly fitted or top-dose-only effect; inactive means no such curve, though single readings can be large or run the other way; tested in A549 cells; further: nearly all actives have a fitted effect of over 30% in size; inactives centre near -10
Vaccinia mCherry: vaccinia inhibition (mCherry reporter). Vaccinia virus mCherry reporter infection, fluorescence; about a quarter of the inactives have no number. Potency, µM (top dose mostly 36.5 µM), for the others: at the highest dose activity change, negative = inhibition, most hits filed as inhibitors. hit rate 0.63% among 310,000. AID 720579; active = well fitted inhibition curve with a large enough effect; inconclusive = small, poorly fitted or top-dose-only effect; inactive = no such curve, though single readings can be large or run the other way; tested in A549 cells; further: nearly all actives have a fitted effect of over 35% in size; inactives centre near -10
Numbers without * were called inactive; i = inactive; u = inconclusive; x = not tested or not shown; & = joins results of further samples; [ ] = another dose, or the depositor's remark. On the % scale 0 is the no-effect control and ±100 the full control effect; potency means the concentration at half of the fitted maximal effect.

| Compound | Vaccinia Venus | Vaccinia mCherry |
| --- | --- | --- |
| CN(C)CCN1C(=O)C(=O)/C(=C(/O)c2ccc3c(c2)OCCO3)C1c1ccccn1 (stereo not given) | 5% | i |
| O=C(COC(=O)C1CCC1)NCc1ccc(Cl)cc1Cl | -3% | -12% |
| Cc1ccccc1NC(=O)c1ccc2c(c1)C(=O)N(CC(C)C)C2=O | 0% | -1% |
| CCOc1ccccc1N(C(=O)c1snc(C(N)=O)c1N)C(C(=O)NC1CCCC1)c1ccco1 (stereo not given) | -11% | -16% |
| CC1CCN(C(=O)Cn2c(-c3cccs3)cc3cc(Cl)ccc32)CC1 | -10% | -11% |
| CCc1nc(CN2CCCC(C(=O)c3ccc4c5c(cccc35)CC4)C2)c(C)[nH]1 (stereo not given) | -13% | -22% |
| CCOc1ccc(-n2c(=O)c3c4c(sc3n(CC(=O)Nc3cccc(C(F)(F)F)c3)c2=O)CCCCC4)cc1 | -25% | -26% |
| CCCCN1C(Nc2ccccc2)=NC[C@@H]1Cc1ccccc1 | -9% | u |
| CC(=O)c1ccc(Oc2ncnc3sccc23)cc1 | -3% | i |
| CC(C)(C)C(=O)N1CCN(c2ncnc3scc(-c4ccccc4)c23)CC1 | -23% | -23% |
| CC1CC(C)CN(S(=O)(=O)c2ccc(F)c(C(=O)NC3CCCCC3C)c2)C1 (stereo not given) | -15% | i |
| CCCCC(=O)Nc1nnc(SCc2cc(=O)n3cc(C)ccc3n2)s1 | 2% | i |
| Nc1ncc(-c2ccccc2)c(-c2ccc(O)cc2O)n1 | -16% | u |
| CCOC(=O)C1CC(CN2C(=O)c3ccccc3C2=O)OC1=O (stereo not given) | -6% | i |
| COc1ccc(N(CC(=O)NCCSc2ccccn2)S(=O)(=O)c2ccccc2)c(OC)c1 | -10% | -15% |
| Cc1noc(C)c1NC(=O)Nc1cccc2c1O[C@H](CN(C)S(=O)(=O)c1cn(C)cn1)[C@@H](C)CN([C@H](C)CO)C2=O | -17% | -13% |
| CCCCNC(=O)C1COc2ccccc2O1 (stereo not given) | -9% | -13% |
| OCC[C@H]1C[C@@H](O)[C@H](O)[C@@]2(CCc3ccccc3CO2)O1 | -8% | i |
| CN(Cc1ccc(F)cc1)C(=O)c1cccc(S(=O)(=O)N2CCN(Cc3ccccc3)CC2)c1 | -20% | -23% |
| COc1cc2nc(SCC(N)=O)n(CCC3=CCCCC3)c(=O)c2cc1OC | -3% | -10% |
| CC(c1ccccc1)N1CC(C(=O)NC2CCCC2)CC1=O (stereo not given) | 1% | -11% |
| N#Cc1ccc(CSCC(=O)O)cc1 | -8% | i |
| COc1ccc(NC(=O)c2cc3c(=O)n(Cc4cccs4)ccc3nc2C)cc1 | -8% | -11% |
| CCOC(=O)CC1C(=O)NCCN1C1CCCC1 (stereo not given) | 21% | i |
| O=c1c2ccccc2sn1-c1cc(S(=O)(=O)N2CCOCC2)ccc1N1CCOCC1 | -10%&-14% | -10%&-19% |
| CCOC(=O)C1=C(CN2CCN(c3cccc(OC)c3)CC2)NC(=O)NC1c1ccc(OC)cc1 (stereo not given) | -19% | -4% |
| NC(=O)C1CCN(Cc2cccc(OCc3ccccc3)c2)CC1 | -21% | -1% |
| CN(C)C(CNC(=O)C1CCCN(C(=O)c2ccc(Cl)cc2)C1)c1ccco1 (stereo not given) | -14% | i |
| CN1C[C@@H]2C[C@@H](c3cccn3-c3ccccn3)N3CCC[C@@]23C1=O | -5% | -14% |
| Cc1ccnc(SCc2ccc([N+](=O)[O-])cc2)n1 | -16% | -5% |
| O=C(Nc1ccc(Br)cc1)c1ccc(F)c(S(=O)(=O)NCc2cccs2)c1 | u | u |
| Cc1ccc(C)c(OCC(=O)NNC(=O)C2CC2)c1 | -9% | -18% |
| Cc1ccc(/C=c2\sc3nc(-c4ccco4)nn3c2=O)o1 | -3% | -8% |
| CN1C(=O)Cc2cc(S(=O)(=O)N3CCN(c4ccc(Cl)cc4)CC3)ccc21 | -5%&-3% | -21%&-6% |
| Cc1ccc(-c2nnc3sc(-c4ccncc4)nn23)cc1 | -8% | -11% |
| COc1ccc(CNC(=O)c2ccc3c(c2)nc2n3CCCCC2)c(OC)c1 | -11% | -3% |

Some of these compounds in order of number of heavy atoms, ascending.
| Compound | Vaccinia Venus | Vaccinia mCherry |
| --- | --- | --- |
| Cc1ccnc(SCc2ccc([N+](=O)[O-])cc2)n1 | -16% | -5% |
| Cc1ccc(C)c(OCC(=O)NNC(=O)C2CC2)c1 | -9% | -18% |
| Cc1ccc(-c2nnc3sc(-c4ccncc4)nn23)cc1 | -8% | -11% |
| NC(=O)C1CCN(Cc2cccc(OCc3ccccc3)c2)CC1 | -21% | -1% |
| CN1C(=O)Cc2cc(S(=O)(=O)N3CCN(c4ccc(Cl)cc4)CC3)ccc21 | -5%&-3% | -21%&-6% |
| CN(C)C(CNC(=O)C1CCCN(C(=O)c2ccc(Cl)cc2)C1)c1ccco1 (stereo not given) | -14% | i |
| CCOC(=O)C1=C(CN2CCN(c3cccc(OC)c3)CC2)NC(=O)NC1c1ccc(OC)cc1 (stereo not given) | -19% | -4% |

Next part.
| Compound | Vaccinia Venus | Vaccinia mCherry |
| --- | --- | --- |
| Cc1ccc2[nH]c3c(=O)n(CC(=O)NC(C)C)ncc3c2c1 | -11% | -7% |
| CSCCC(NS(=O)(=O)/C=C/c1ccccc1)C(=O)NCCc1ccc(S(N)(=O)=O)cc1 (stereo not given) | -1% | 33%[activator] |
| CCOC(=O)C1=C(c2ccccc2)NC(=O)NC1c1ccc(OC)c(OC)c1 (stereo not given) | -12% | i |
| Cc1cc(C(C)(C)C)oc1C(=O)Nc1ccc(CC(=O)O)cc1 | u | u |
| CNCc1nc(-c2ccc[nH]2)c2cc(Cl)ccc2n1 | 9% | 27% |
| CCC1(C)Cc2c(sc3nc(SC)n(Cc4ccccc4)c(=O)c23)CO1 (stereo not given) | -17% | x |
| CC1(C(=O)NS(=O)(=O)c2cccc(Cl)c2)CCN1C(=O)Cc1ccc(Cl)cc1Cl (stereo not given) | -3% | -17% |
| Cc1ccc(NC(=O)CSCC(=O)NCc2ccco2)cc1 | -9% | -1% |
| C=CCSc1nccc(=O)[nH]1 | 3% | -12% |
| O=C(CCNC(=O)c1ccc(Cl)cc1)Nc1ccncc1 | -11% | -18% |
| CC(C)N1C(=O)NC2NC(=O)N(C(C)C)C21 (stereo not given) | -8% | 2% |
| COc1ccc(-c2oc3cc(OC(C)=O)cc(OC(C)=O)c3c(=O)c2OC)cc1 | -18% | -11% |
| O=C(O)C1CCCCC1C(=O)Nc1cc(Cl)ccc1Cl (stereo not given) | -21% | 0% |
| O=C(CCCn1cc([N+](=O)[O-])cn1)Nc1cccnc1 | 1% | -3% |
| O=C(NCc1nc2ccccc2[nH]1)C1=C[C@H](c2ccccc2)C[C@H](OCCCCO)O1 | -13% | -11% |
| Cc1cc(C(F)(F)F)nc2c(Cl)c(C(C)(C)C)nn12 | -14% | i |
| Cc1ccc(SC(=O)COc2ccccc2C)cc1 | -9% | -17% |
| CCCC(=O)N1CCC1(C)C(=O)Nc1ccc(-n2cncn2)cc1 (stereo not given) | 1% | 22% |
| C[C@H](CCC(=O)O)C1CC[C@H]2C3CC[C@@H]4C[C@H](O)CC[C@]4(C)C3C[C@H](O)[C@]12C (stereo not given in full) | 8% | 10% |
| Cc1csc(NC(=O)[C@@H]2CCCN2C(=O)c2cccs2)n1 | -10% | i |
| CCN(CC)c1ncnc2c1ncn2[C@H]1CN(Cc2ccccc2)C[C@@H](COC(C)=O)O1 | 4% | i |
| Cc1nn(C)c(C)c1NS(=O)(=O)c1ccc(N2CCCC2=O)cc1 | -30% | u |
| O=C(CC(c1ccco1)C1CCCCC1=O)c1ccco1 (stereo not given) | -24% | x |
| O=C(Nc1ncc(Cc2cccc(C(F)(F)F)c2)s1)c1ccc(-c2cccc([N+](=O)[O-])c2)o1 | -28% | u |
| COc1cccc(/C=N/NC(=O)CO/N=C(\C)c2cccs2)c1OC | -1% | -9% |
| O=c1[nH]c(SCc2nc3c(cnn3-c3ccccc3)c(=O)[nH]2)nc2ccccc12 | -2% | x |
| O=C1c2ccccc2-c2c1cccc2C(=O)N1CCCCC1 | -3% | x |
| CC(C)OC1=CC(=O)OC(c2cccc(Cl)c2)C1 (stereo not given) | -19% | 14% |
| O=C(Nc1cccc2c1CCCC2)c1ccc(F)cc1 | -11% | i |
| Cc1cc2c(cc1C)N(Cc1ccc(Cl)cc1)C1=NCCCN12 | u | u |
| Cc1ccc2c(c1)CO[C@]21O[C@H](CCO)C[C@H](O)[C@H]1O | -4% | 0% |
| CCCCCc1c(-c2ccccc2OC)ncn1CCc1ccccc1OC | u | u |
| CCOC(=O)c1nc2cc3n(c(CC(C)C)c-2c1C)CC(C)=C3C | 4% | i |
| CN(CC(=O)Nc1c(Cl)cccc1Cl)C(=O)c1ccc2nc[nH]c2c1 | -11% | -10% |
| CCCN(C(=O)Cn1cnc2onc(-c3ccc(F)cc3)c2c1=O)c1cccc(Cl)c1 | -12% | -17% |
| O=C(Nc1cccc(S(=O)(=O)N2CCOCC2)c1)C1CCCCN1S(=O)(=O)c1ccccc1 (stereo not given) | -29% | -11% |
| COc1ccc(CNC(=O)C(=O)Nc2ccc(OC)cc2OC)cc1 | -9% | -18% |
| CC1CCCC(C)N1C(=O)COC(=O)/C=C/c1ccco1 (stereo not given) | 2% | -3% |
| O=C(CN1CCN(S(=O)(=O)N2CCCCCC2)CC1)Nc1ccc(Br)cc1 | -20% | -6% |
| COc1cc(C=C2CCCC(=Cc3ccc(OCC4CO4)c(OC)c3)C2=O)ccc1OCC1CO1 (stereo not given) | u | u |
| O=C(CN1C(=O)COc2ccc(Cl)cc21)Nc1ccc(N2CCOCC2)cc1 | -11% | -12% |
| O=C(Nc1ccc(N2CCCC2)c(Cl)c1)c1cccc(-c2cc3ccccc3oc2=O)c1 | -9% | i |
| COc1cc2c(cc1OC)C(c1cc3cc4c(cc3[nH]c1=O)OCO4)N(C(=O)C1CC1)CC2 (stereo not given) | -12% | -19% |
| Cc1ccc([C@@H]2CC(=O)[C@@H]3CN(S(=O)(=O)c4ccc(C)cc4)[C@H](c4cccc(Cl)c4)C[C@@H]3N2S(=O)(=O)c2ccc(Cl)cc2)cc1 | -13% | 0% |
| CCOc1ccc(N(C(=O)c2ccc(S(=O)(=O)N3CCCC3)cc2)C2C=CS(=O)(=O)C2)cc1 (stereo not given) | -14% | i |
| Cc1[nH]c2ccccc2c1C(=O)CN1CC(C)OC(C)C1 (stereo not given) | -12% | -12% |
| Cc1ccccc1C(=O)Nc1nnc2n1CCS2 | 0% | 8% |
| COc1ccc2nc(N/C(=N/S(=O)(=O)c3cccs3)c3ccccc3Cl)sc2c1 | -14% | i |
| COc1ccc(N2CCN(C(=O)NC3CCCCC3)CC2)cc1 | -21% | x |
| O=c1c2ccccc2ncn1Cc1ccc(Cl)cc1 | -14% | -10% |
| Cc1ccc(NC(=O)Nc2ccc3c(c2)OCO3)c(Br)c1 | -9% | -1% |
| Cc1ccc(-c2noc(-c3ccc(NCC4CCCO4)c([N+](=O)[O-])c3)n2)cc1 (stereo not given) | 3% | -13% |
| COc1cc(S(=O)(=O)n2nnc3ccccc32)c(OC)cc1Cl | 2% | -10% |
| CC(C)Oc1ccc(CNC(=O)c2ccc3nc(N4CCOCC4)sc3c2)cc1 | -14% | i |
| O=C(/C=C/Nc1ccccc1)C(F)(F)F | -15% | -16% |
| COc1ccc(C(=O)N2CCCCC2)cc1S(=O)(=O)Nc1ccccc1 | -20% | -24% |
| CCCn1nc(C(=O)NCCN2CCOCC2)c2ccccc2c1=O | -5% | -8% |
| CC(C)=CCCC1=CCC(/C=N/NC(N)=O)C(C)C1 (stereo not given) | -16% | -1% |
| COc1ccc(N=Cc2cccc(C)c2O)cc1Cl | -2% | -11% |
| O=c1[nH]c2ccccc2nc1/C=C/c1ccccc1 | -14% | i |

Continuation:
| Compound | Vaccinia Venus | Vaccinia mCherry |
| --- | --- | --- |
| CC1(CC(=O)N/N=C/c2ccc(OCc3ccc(Cl)cc3Cl)cc2)OCCCO1 | u | u |
| CCN(CC)S(=O)(=O)c1ccc(OC)c(NC(=O)CSc2cc(Cl)ccc2Cl)c1 | -18% | -9% |
| COc1ccc(CCNC(=O)C2CC(=O)N(c3ccc(C)cc3)C2)cc1 (stereo not given) | -9% | -5% |
| COc1ccc(OC)c2[nH]c(=O)c(CCNC(=O)c3cccs3)cc12 | -2% | 6% |
| O=C(CC[C@H]1O[C@@H](n2cnc3c(NC(=O)c4ccccc4)ncnc32)[C@H](O)[C@@H]1O)NCc1ccc(OC(F)(F)F)cc1 | -4% | 1% |
| CCOC(=O)c1ccc(NC(=O)CSc2nc3sc(C(=O)O)c(C)c3c(=O)[nH]2)cc1 | -4% | -7% |
| Oc1ccc(Cl)cc1C=NN1CCCCCC1 | -2% | i |
| CCC(CC)C(=O)OCc1cc(=O)n2nc(C3CCCCC3)sc2n1 | -6% | 2% |
| CC(C)Oc1ccc(CNC(=O)C2CCN(C(=O)N3CC(C)Oc4ccccc43)CC2)cc1 (stereo not given) | -17% | -11% |
| CC(C)Oc1cccc(C(=O)NC(=S)Nc2cccc(C(F)(F)F)c2)c1 | -11% | x |
| Fc1ccccc1-n1cc(-c2ccccc2)[nH]c1=S | -3% | i |
| O=C(Cc1cccc2c(=O)cc(-c3ccccc3)oc12)OCCN1CCOCC1 | -1% | 15% |
| CC(C)c1cccc(C(C)C)c1NC(=O)Cn1c(=O)cnc2ccccc21 | -6% | i |
| CC(C)(C)c1[nH]nc2c1C(Cc1ccccc1)C(C#N)=C(N)O2 (stereo not given) | -14% | -9% |
| COc1ccc(C(=O)NC(NC(=O)c2ccc(OC)cc2)c2ccccc2F)cc1 | -20% | i |
